Screening results as filed in PubChem BioAssay.
A488 fluor – qHTS Assay for Spectroscopic Profiling in A488 Spectral Region. compound autofluorescence, A488 spectral region, dye equivalency; active compounds read high. max dye equivalency, M. 59,000 compounds, 0.1% hits. AID 591, 2007; active = above 10 nM dye equivalent; inconclusive = 1 to 10 nM; inactive = 1 nM or less; about half of its hits are not listed in these tables;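 note: highest value over a series up to 38 µM; compound alone in buffer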
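Readout is A488 dye-equivalent concentration, calibrated by a per-plate six-point Alexa 488 series. Compounds in 100 mM Tris buffer pH 8.0 were incubated 15 min at room temperature. Plates were imaged using 480 nm excitation/540 nm emission filters.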
Resorufin fluor – qHTS Assay for Spectroscopic Profiling in Resorufin Spectral Region; 59,000 compounds, 0.04% hits; max dye-equivalent concentration, M; Compound fluorescence, resorufin region 547/598 nm, buffer; active compounds read high; active = above 10 nM dye equivalent; inconclusive = 1 to 10 nM; inactive = 1 nM or less; a few of its hits are not listed in these tables; note: highest value over a series up to 38 µM
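Dye-equivalent concentration values derive from comparing each well's 547/598 nm fluorescence against resorufin standards included on every plate. Incubation was 15 min at room temperature in 100 mM Tris, pH 8.0.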
A647 autofl – qHTS Assay for Spectroscopic Profiling in A647 Spectral Region. Compound fluorescence, A647 channel (570/671 nm), Tris buffer. max dye-equivalent concentration, M. 59,000 tested, under 10 active; active means above 1 µM dye equivalent; inconclusive means 0.1 to 1 µM; inactive means 0.1 µM or less;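 note: values scaled relative to a standard on each plate; highest value over a series up to 38 µM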
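Spectral profiling of library compounds in pH 8.0 Tris: 15 min room-temperature incubation, single ex/em pair (570/671 nm), response normalized to Alexa 647 equivalents.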
TSHR ag – qHTS Assay for Agonists of the Thyroid Stimulating Hormone Receptor; Thyrotropin receptor (Homo sapiens), P16473; HEK293-CNG-TSHR cells (CNG channel as cAMP sensor), membrane potential dye, cAMP; Potency, µM (doses to about 57.1 µM), for inactives: at the highest dose activation, most hits filed as activators; 73,000 compounds, 0.48% hits; active = well fitted activation curve of enough size with the parental cells flat; inconclusive = any curve in the parental cells; inactive = parental cells flat and receptor cells flat or falling; note: potency is the fitted concentration of half-maximal effect; % of control where 0% means no effect; weak receptor curves with flat parental cells got no call and are not listed
Target sequence (P16473 whole entry, looked up): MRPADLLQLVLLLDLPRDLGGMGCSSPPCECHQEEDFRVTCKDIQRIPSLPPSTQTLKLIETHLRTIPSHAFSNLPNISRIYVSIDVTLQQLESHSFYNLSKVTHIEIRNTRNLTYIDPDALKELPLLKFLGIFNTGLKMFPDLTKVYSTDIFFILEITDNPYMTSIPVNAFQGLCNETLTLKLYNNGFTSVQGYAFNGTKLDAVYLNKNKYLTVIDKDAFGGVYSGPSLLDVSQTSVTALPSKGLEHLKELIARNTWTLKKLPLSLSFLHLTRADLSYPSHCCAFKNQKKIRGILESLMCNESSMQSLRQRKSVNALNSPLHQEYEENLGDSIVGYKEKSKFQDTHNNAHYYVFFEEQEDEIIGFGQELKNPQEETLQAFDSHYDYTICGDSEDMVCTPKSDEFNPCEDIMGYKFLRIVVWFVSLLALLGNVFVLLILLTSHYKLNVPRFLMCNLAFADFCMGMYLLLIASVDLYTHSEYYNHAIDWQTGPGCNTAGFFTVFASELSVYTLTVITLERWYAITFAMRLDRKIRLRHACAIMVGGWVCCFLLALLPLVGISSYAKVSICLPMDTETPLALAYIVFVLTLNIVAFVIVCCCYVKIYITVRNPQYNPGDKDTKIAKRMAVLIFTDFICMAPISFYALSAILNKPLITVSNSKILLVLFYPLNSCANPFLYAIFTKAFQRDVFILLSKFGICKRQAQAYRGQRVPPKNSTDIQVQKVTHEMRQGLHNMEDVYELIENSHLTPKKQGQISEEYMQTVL
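cAMP rise detected as CNG-channel membrane depolarization by fluorescent dye (emission 590 nm), 30 min after compound, following 60 min dye loading containing 100 uM RO 20-1724 at room temperature. Cells: TSHR/CNG HEK 293, with parental CNG HEK 293 as control.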
AID923 – qHTS Assay for Allosteric/Competitive Inhibitors of Caspase-1: Spectroscopic Profiling in AFC Spectral Region; compound fluorescence, AFC spectral region (405/520 nm); almost no hit is shown here; Potency, µM (highest dose often 57.5 µM), for inactives: top-dose fluorescence increase, usual class: activators; 75,000 compounds, 1.1% hits; active = well fitted activation curve with a large enough effect; inconclusive = small, poorly fitted or top-dose-only effect;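 note: potency is the fitted concentration of half-maximal effect; 0% is about no effect; scaled to a free AFC standard on each plate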
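Titrations up to 57 uM read every 20 sec for 3 min (405/520 nm) with 50 nM caspase 1 and 5 uM Ac-WEHD-AFC, pH 7.5 HEPES buffer. Fluorescence-vs-time intercept gave baseline, scaled against on-plate AFC standard.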
The depositor's hits bear a star; i = inactive; ? = inconclusive; . = not tested or not shown; & = joins results of further samples; [ ] = another dose, or the depositor's remark. Only part of the results is shown; rates above refer to the full screens.

SMILES,AID923,A488 fluor,Resorufin fluor,TSHR ag,A647 autofl
CC(C)N(Cc1nc(-c2ccccc2)no1)C(=O)CSc1ccccc1,0.8%,i,i,?,1e-09
Nc1c2c(nc3ccccc13)CCCC2,1.2%,i,i,?,1.4e-08&1e-09
CCc1cc(-c2n[nH]c(C)c2-c2nc3ccccc3n2C)c(O)c(CN2CCN(C)CC2)c1O,-2.4%,i,i,5%,3.2e-08
COc1ccc(-c2coc3c(CN4CCCCC4)c(O)c(CN4CCCCC4)c(O)c3c2=O)cc1,1.8%,i,i,-8%,4.7e-08
COc1ccc2[nH]cc(CCNc3ncncc3-c3ccccc3CN(C)C)c2c1,3.1%,i,i,1%,1.2e-09
COC(=O)c1ccc(CSc2nc3c(cnn3-c3ccc(C)c(C)c3)c(=O)[nH]2)o1,-0.1%,i,i,.,2.6e-08
O=S(=O)(c1cccc(-c2cn3cccnc3n2)c1)N1CCCCCC1,0.5%,i,i,5%,1e-09
Cc1ccccc1Nc1nc(CSc2nnc(-c3ccoc3C)n2C)cs1,-4.2%,i,i,.,1.8e-08
COc1ccccc1Oc1c(C)oc2c(CN3CCN(C)CC3)c(O)ccc2c1=O,10.0%,i,i,1%,1.3e-08
C=CCn1c(NCCO)nc2c1c(=O)n(C)c(=O)n2C,-1.2%,i,i,12%,7.9e-09
CCN1CCCC1Cn1cnc2c([nH]c3cccc(Cl)c32)c1=O (configuration not stated),1.5%,i,i,-9%,6.5e-09
COc1c2c(nc3ccccc13)OC(C(C)(O)COC(C)=O)C2 (configuration not stated),-0.1%,.,.,2%,.
Cc1sc(NC(=O)c2ccco2)c(C(c2cccnc2)N2CCN(c3ccc(F)cc3)CC2)c1C (configuration not stated),7.3%,.,.,2%,.
CCOC(=O)N/N=C1/C[C@@H](O)[C@@H](O)[C@@H]2[C@H]3C(=O)N(c4ccc(F)cc4F)C(=O)[C@@H]3CC[C@@H]12,-1.1%[11.5 µM],.,.,-5%[11.4 µM],.
O=C(Nc1ccc(OC(=O)c2ccco2)cc1)c1ccco1,-0.5%,i,i,-2%,1e-09
COc1ccccc1CNC(=O)C1CCN(S(=O)(=O)N2CCCCC2)CC1,-1.9%,i,i,0%,4.8e-08
CCc1c(C(=O)NCc2cnn(C)c2)csc1C,-3.5%,i,i,1%,4.5e-09
CCOCCn1c(N2CCN(c3ccc(OC)cc3)CC2)nc2c1c(=O)[nH]c(=O)n2C,-0.2%,i,i,2%,4.2e-08
C=CCNC(=O)c1ccc(C)c(Br)c1,0.8%,i,i,-11%,7.2e-09
CCC(CC)NCc1ccc(OC)cc1OC,-0.2%,i,i,22%,4.8e-09

Next section; the last four above are carried over.
SMILES,AID923,A488 fluor,Resorufin fluor,TSHR ag,A647 autofl
CCc1c(C(=O)NCc2cnn(C)c2)csc1C,-3.5%,i,i,1%,4.5e-09
CCOCCn1c(N2CCN(c3ccc(OC)cc3)CC2)nc2c1c(=O)[nH]c(=O)n2C,-0.2%,i,i,2%,4.2e-08
C=CCNC(=O)c1ccc(C)c(Br)c1,0.8%,i,i,-11%,7.2e-09
CCC(CC)NCc1ccc(OC)cc1OC,-0.2%,i,i,22%,4.8e-09
CCOC(=O)c1ccc(CNC(=O)Cn2nnc(-c3ccc(C)cc3)n2)o1,0.8%,i,i,2%,5.3e-09
Cc1ccc2c(c1)c1c(n2CC(O)Cn2c(C)nc3ccccc32)C(=O)CCC1 (configuration not stated),3.6%,.,.,28%,.
Cn1c(=O)oc2cc(S(=O)(=O)NCCN3CCc4ccccc4C3)ccc21,0.5%,.,.,1%,.
C=CCOc1ccc(CNc2nn[nH]n2)cc1,-0.2%,i,i,-2%,6.9e-09
Cc1cccc(Nc2ncc3c(n2)CC(c2ccco2)CC3=O)c1 (configuration not stated),1.8%,i,i,?,1e-09
COc1ccccc1-n1cc(C(=O)NCC(=O)N2CCN(c3ccccc3)CC2)c2ccccc2c1=O,0.5%,i,i,4%,5.4e-09
O=C(Cn1cnc2c(oc3ccccc32)c1=O)NCCc1ccccc1,-0.5%,i,i,3%,5.6e-09
CC1(C)CC(=O)C2=C(C1)N(Cc1ccco1)C(=O)NC2(C(F)(F)F)C(F)(F)F,-1.0%,i,i,3%,2.4e-08
COc1cccc(-n2c(SCC(N)=O)nc3c([nH]c4ccccc43)c2=O)c1,-0.2%,i,i,3%[11.4 µM],8.1e-09
c1ccc(N2CCN(CCCOc3ccc4c(c3)OCO4)CC2)cc1,1.2%,.,.,?,.
O=C(NCC(c1cccnc1)N1CCN(c2ccc(F)cc2)CC1)c1ccc2c(c1)OCO2 (configuration not stated),-0.1%,i,i,14%,1e-09
COC(=O)c1nc2n(n1)C(c1cc(OC)ccc1OC)C(C(=O)OC1CCCCC1)=C(C)N2 (configuration not stated),-0.3%,i,i,4%,5.6e-09
CCOc1ccccc1N(CC(=O)Nc1ccccc1C(=O)O)S(C)(=O)=O,-1.0%,.,.,-4%,.
O=C(CSc1nnc(CCCO)n1-c1ccccc1)NCCc1ccccc1,1.4%,i,i,1%,2.5e-09
COc1ccc(CC2S/C(=C(\C#N)C(=O)NCc3ccco3)N(c3ccc(C)cc3)C2=O)cc1 (configuration not stated),8.4%,i,i,6%,3.1e-08
CCC(C)NC(=O)Cn1c(=O)n(-c2ccccc2)c(=O)c2ccc(C(=O)NCc3ccco3)cc21 (configuration not stated),2.5%,i,i,-2%,1e-09
COc1ccc(Oc2ncc3nc(C)c(=O)n(C[C@H]4CCCO4)c3n2)cc1,0.9%,i,i,9%,2.2e-08
Cc1ccc(C)c(/C(O)=C2\C(=O)C(=O)N(CCCN(C)C)C2c2cccnc2)c1 (configuration not stated),2.1%,i,i,-1%,3.7e-09
CNS(=O)(=O)c1cccc(C(=O)OCc2cc(Cl)cc3c2OCOC3)c1,0.9%,i,i,26%,2.6e-08
Cn1c(=O)n(Cc2ccccc2)c(=O)c2c1nc1n2CCCN1C1CCCCC1,-0.6%,i,i,?,1.1e-08

Continued:
SMILES,AID923,A488 fluor,Resorufin fluor,TSHR ag,A647 autofl
Clc1ccc(Nc2ncnc3c2cnn3-c2ccccc2)cc1,-2.8%,.,.,9%,.
CCC(C)NC(=O)CS(=O)(=O)Cc1nc(-c2cccc(OC)c2)oc1C (configuration not stated),1.2%,.,.,29%,.
O=C(COC(=O)c1cccnc1)Nc1cccc(Cl)c1,0.8%,i,i,-8%,2.5e-09
COc1ccc(O[C@H]2C=C[C@@H](c3ccccc3)O[C@H]2COC(=O)CC/C(C)=N\OC[C@@H](C)[C@H](OCc2ccccc2)C(C)C)cc1,0.5%[11.5 µM],.,.,1%[11.4 µM],.
Cn1c(SCC(=O)NCc2cccs2)nnc1-c1ccc(S(=O)(=O)N2CCCC2)cc1,-0.1%,i,i,12%,1.7e-08
COc1ccc2c(C)cc(SCC(=O)N3CCOCC3)nc2c1,1.2%,?,i,3%,3.7e-08
CC1=C(C(=O)N2CCN(C(=O)c3ccco3)CC2)C2(CCC(C)CC2)OC1=O (configuration not stated),2.7%,.,.,-2%,.
CCOC(=O)c1ccc(N=C2NC(=O)CS2)cc1,9.1%,i,i,-3%,1.8e-09
COc1ccc(S(=O)(=O)N2CCN(c3c(C)cccc3C)CC2)cc1OC,2.4%,.,.,?,.
Cc1c(CCC#N)c(N2CCN(C3CCCCC3)CC2)n2c(nc3ccccc32)c1C#N,.,i,i,.,2e-09
CCCCN1CCc2c([nH]c3c(C)cccc23)C1=O,1.7%,i,i,7%,3.7e-08
COCCNC(=O)CCSCc1ccccc1F,2.2%,i,i,-3%,2.4e-08
Cn1cccc1Cc1nnc(SCC(=O)NCc2ccco2)n1-c1ccc(F)cc1,1.6%,i,i,-5%,1.2e-08
CCc1ccc2oc(=O)cc(CN3CCN(CCO)CC3)c2c1,-0.6%,i,i,.,2e-08
CS(=O)(=O)c1ccc(N2CCN(C3CC(=O)NC3=O)CC2)cc1 (configuration not stated),-0.3%,i,i,1%,6.1e-09
Cn1c(=O)c2c(nc(N3CCCCC3)n2C)n(C)c1=O,1.3%,.,.,-5%,.
C=COCC1CN2C(CCC(C)C2c2ccc(Br)cc2)C(=O)O1 (configuration not stated),-0.4%&0.2%[11.5 µM],.,.,?,.
CN1CCN(S(=O)(=O)c2ccc(-c3ccc(Cl)cc3)cc2)CC1,2.7%,i,i,42%,1e-09
CC1=C(C(=O)OCc2ccccc2)C(c2ccc(N3CCOCC3)cc2)NC(=O)N1 (configuration not stated),4.3%,.,.,26%,.
COc1ccc(-c2nc(-c3cccc(C(F)(F)F)c3)no2)cc1OC,-0.9%,.,.,-1%,.

New compounds follow
SMILES,AID923,A488 fluor,Resorufin fluor,TSHR ag,A647 autofl
CC(C)c1ccc(-c2nc3c([nH]2)c(=O)n(C)c(=O)n3C)cc1,2.0%,i,i,0%,1.2e-09
CCOC(=O)C1CCN(c2c(N3CCN(Cc4ccccc4)CC3)c(=O)c2=O)CC1,-5.2%,.,.,3%,.
CCN(c1ccc2c(c1)OCO2)S(=O)(=O)c1cc(Br)cc2c1N(C(=O)C1CC1)CC2,0.0%,i,i,?,1e-09
COc1cccc(NC(=O)CN(C)S(=O)(=O)c2ccc(C)cc2)c1,-0.1%,i,i,-5%,3.4e-09
Clc1ccccc1-c1nccc(NCc2ccccc2)n1,-0.1%,i,i,14%,1.5e-09
Clc1cccc2sc(N3CCOCC3)nc12,-0.3%,i,i,-3%,3.7e-08
Fc1ccc(NCc2cccnc2)cc1,-1.6%,i,i,2%,5.9e-08
CC(=O)Nc1ccn(-c2ccccc2)n1,1.0%,i,i,.,1.9e-08
CCN(CC)CCn1c(=S)[nH]c2ccccc2c1=O,-0.1%,.,.,10%[11.4 µM],.
O=c1cc(N2CCN(c3ccccc3)CC2)[nH]c(=O)n1-c1ccccc1Cl,-0.9%,i,i,3%,4.1e-09
COc1ccccc1N1CCN(C(=O)c2ccoc2C)CC1,-0.5%,i,i,-1%,4.6e-08
COc1ccccc1N1CCN(C(=O)CSc2nnc3n2C(C)(C)Cc2ccccc2-3)CC1,1.4%,i,i,.,4.7e-09
CCN(CC)c1ccc(CN(C(=O)c2cc(OC)c(OC)c(OC)c2)C2CCS(=O)(=O)C2)cc1 (configuration not stated),-0.4%,i,i,20%,2.6e-08
COc1cccc2oc(-c3ccc(O)cc3)cc(=O)c12,4.7%,i,i,0%,2.3e-09
O=C(Nc1ccc(Cl)cn1)c1cc(S(=O)(=O)N2CCCCC2)ccc1Cl,1.3%,i,i,15%,5.2e-09
N[C@]1(C(=O)O)CCc2cc(P(=O)(O)O)ccc21,2.3%,.,.,-4%,.
